From PubChem BioAssay
Cruzain inh noDet – qHTS Assay for Promiscuous and Specific Inhibitors of Cruzain (without detergent); Cruzipain (Trypanosoma cruzi), P25779; purified cruzain, Z-FR-AMC fluorescence, no detergent; Potency, µM, inactives show max response, negative = inhibition, hits mostly inhibitors; 200,000 compounds, 2.3% hits; AID 1476, 2009;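 further: plate controls were enzyme without inhibitor for no effect and buffer without enzyme for full effect; nearly all actives have a fitted effect of over 40% in size; top concentration of the series not given in the record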
Target sequence (P25779 123-467 limits assumed): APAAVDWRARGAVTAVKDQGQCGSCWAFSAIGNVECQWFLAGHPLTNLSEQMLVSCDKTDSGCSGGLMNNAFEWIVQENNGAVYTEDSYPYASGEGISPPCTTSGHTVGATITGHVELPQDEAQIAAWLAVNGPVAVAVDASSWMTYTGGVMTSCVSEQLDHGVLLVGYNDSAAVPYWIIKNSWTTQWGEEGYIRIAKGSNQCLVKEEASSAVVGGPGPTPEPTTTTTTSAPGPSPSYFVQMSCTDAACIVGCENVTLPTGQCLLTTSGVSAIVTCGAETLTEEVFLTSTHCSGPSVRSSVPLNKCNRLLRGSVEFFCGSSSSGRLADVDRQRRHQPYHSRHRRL
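Detergent-free condition (0.00005% Triton X-100) in acetate buffer pH 5.5 with DTT. 1.5 nM enzyme and compound were pre-mixed 15 min, then 2 uM Z-FR-AMC substrate added; reaction progress from fluorescence change between first and third reads (60 s).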
SARS PLpro yeast – qHTS of Yeast-based Assay for SARS-CoV PLP; 330,000 compounds, 0.19% hits; Potency, µM (doses to about 32.9 µM), without a hit: at the highest dose activity, positive = growth rescue; S. cerevisiae expressing SARS-CoV PLpro, growth rescue; control for the full effect not named in the record; active means well fitted rising curve with a large enough effect; inconclusive means small, poorly fitted or top-dose-only effect; inactive means no such curve, though single readings can be large or run the other way; further: 0% is about no effect; nearly all actives have a fitted effect of over 55% in size; growth read by luminescence after 48 h
RE007 growth inh – qHTS Assay for Inhibitors of the HIV-1 protein Vpr. S. pombe RE007 Vpr strain, BacTiter-Glo ATP luminescence, 24 h; control for the full effect not named in the record. Potency, µM (titrated, usually from 92.2 µM), for the others: at the highest dose activity change, negative = less growth. 360,000 compounds, 0.21% hits. AID 651644, 2012; active = well fitted falling curve with a large enough effect; inconclusive = small, poorly fitted or top-dose-only effect; inactive = no such curve, though single readings can be large or run the other way;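 further: on the % scale 0 is the no-effect control and ±100 the full control effect; nearly all actives have a fitted effect of over 50% in size; the assay follows cell death caused by Vpr and the record does not say whether a fall means rescue or toxicity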
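Fission yeast RE007 carrying one integrated HIV-1 vpr copy, seeded at OD 0.01 in PMG+AL medium with 23 nL pinned compound. Grown 24 h at 30 degrees; viability read by BacTiter-Glo luminescence after 5 min.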
LASV entry inh – qHTS for Inhibitors of binding or entry into cells for Lassa Virus | Lassa virus pseudotype entry inhibition, cell reporter; control for the full effect not named in the record | Potency, µM (highest dose often 37.9 µM), inactives show at the highest dose activity change, negative = inhibition, usual class: inhibitors | 300,000 compounds, 1.2% hits; active means well fitted inhibition curve with a large enough effect; inconclusive means small, poorly fitted or top-dose-only effect, or effect the other way; inactive means flat fitted curve, though single readings scatter; tested in HEK293 cells; further: on the % scale 0 is the no-effect control and ±100 the full control effect; nearly all actives have a fitted effect of over 50% in size; luciferase read-out
NS1 inh – qHTS Assay for Inhibitors of Influenza NS1 Protein Function; S. cerevisiae slowed by influenza A NS1, growth recovery by OD600; 270,000 compounds, 0.4% hits; Potency, µM (doses to about 46.1 µM), inactives show at the highest dose activity, positive = more growth; active means well fitted rising curve with a large enough effect; inconclusive means small, poorly fitted or top-dose-only effect; inactive means no such curve, though single readings can be large or run the other way; further: nearly all actives have a fitted effect of over 50% in size
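Compounds were scored for reversing the slow growth caused by influenza A NS1 in S. cerevisiae, measured by optical density at 600 nm. Assay medium contained 2% galactose at pH 6.0; NS1-free yeast of the same strain were the positive control.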
StopGo reporter – High Throughput Screening for Foot and Mouth Disease Virus Antivirals; human cells with a luciferase reporter of 2A StopGo recoding; control for the full effect not named in the record; Potency, µM (titrated, usually from 57.9 µM), for inactives: at the top dose signal change, negative = less light; 410,000 compounds, 1.2% hits; AID 1159524, 2015; active = well fitted falling curve with a large enough effect; inconclusive = small, poorly fitted or top-dose-only effect; inactive = no such curve, though single readings can be large or run the other way; tested in HEK293T cells; further: on the % scale 0 is the no-effect control and ±100 the full control effect; nearly all actives have a fitted effect of over 45% in size; luciferase light after 4 h
Cruzain inh Det – qHTS Assay for Promiscuous and Specific Inhibitors of Cruzain (with detergent). Cruzipain (Trypanosoma cruzi), P25779. purified cruzain, Z-FR-AMC fluorescence, 0.01% Triton. Potency, µM, without a hit: max response, negative = inhibition, usual class: inhibitors. 200,000 compounds, 0.43% hits;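 further: plate controls were neutral wells for no effect and buffer without enzyme for full effect; nearly all actives have a fitted effect of over 40% in size; top concentration of the series not given in the record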
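Z-FR-AMC hydrolysis (2 uM substrate) by cruzain (1.5 nM) monitored kinetically at ex 360/em 450 nm after 15 min room-temperature compound exposure; 0.01% Triton X-100, pH 5.5, 5 mM DTT.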
MARV entry inh – qHTS for inhibitors of binding or entry into cells for Marburg Virus; Marburg virus pseudotyped entry inhibition, cell reporter; control for the full effect not named in the record; about a third of the inactives were read at about 46 µM; Potency, µM (series often up to 37.8 µM), without a hit: top-dose activity change, negative = inhibition, most hits filed as inhibitors; 300,000 compounds, 1.8% hits; AID 540276, 2011; active = well fitted inhibition curve with a large enough effect; inconclusive = small, poorly fitted or top-dose-only effect, or effect the other way; inactive = flat fitted curve, though single readings scatter; tested in HEK293 cells; about a fifth of its hits are not listed in these tables; further: on the % scale 0 is the no-effect control and ±100 the full control effect; luciferase read-out
An asterisk follows results filed as active; & = joins results of further samples; [ ] = dose if it differs, or a comment. Unless noted, the call rests on the fitted dose curve; in most records, active means well fitted curve in the direction sought with a large enough effect; inconclusive means small, poorly fitted or top-dose-only effect, or another doubt; inactive means no such curve, though single readings can be large; an effect the other way counts as inactive or inconclusive. Potency means the concentration at half of the fitted maximal effect.

How did O=C(Cc1ccccc1)NNC1CC(=O)N(c2ccc(Br)cc2)C1=O (stereo not drawn) do in these assays?
Cruzain inh noDet: -6%; SARS PLpro yeast: -14%; RE007 growth inh: 6%; LASV entry inh: 4%; NS1 inh: 20%; StopGo reporter: 5%; Cruzain inh Det: 0.7%; MARV entry inh: -1%

How did Cn1c(=O)n(C)c2cc(CNCc3ccccc3Cl)ccc21 do in these assays?
Cruzain inh noDet: -6%; LASV entry inh: -13%[46.1 µM]; StopGo reporter: -2%; Cruzain inh Det: -0.1%; MARV entry inh: -11%[46.1 µM]

Results for COc1ccc(C2=Nn3c(nnc3-c3ccccc3OC)SC2)cc1OC ?
Cruzain inh noDet: -3%; SARS PLpro yeast: 1%&-4%; RE007 growth inh: 13%; LASV entry inh: inconclusive; NS1 inh: -4%; StopGo reporter: -19%; Cruzain inh Det: -8.9%; MARV entry inh: inconclusive

Results for COc1ccc(-c2cn3cccnc3n2)cc1NC(=O)CC(C)C ?
Cruzain inh noDet: -6%; SARS PLpro yeast: 4%; RE007 growth inh: -1%; LASV entry inh: 2%; NS1 inh: -13%; StopGo reporter: 21%; Cruzain inh Det: 1.6%; MARV entry inh: 0%

What do the screens show for `Cc1c(Cl)cccc1NC(=O)c1cccc(OC(F)F)c1`?
Cruzain inh noDet: 2%; SARS PLpro yeast: -13%; RE007 growth inh: inconclusive; LASV entry inh: 13%; NS1 inh: -51%; StopGo reporter: 0%; Cruzain inh Det: 0.9%; MARV entry inh: 12%

What do the screens show for `COc1cccc2cc(C(=O)C3=C(O)C(=O)N(c4cc(C)on4)C3c3cccs3)oc12` (stereo not drawn)?
SARS PLpro yeast: -7%; RE007 growth inh: 12%; NS1 inh: 9%; StopGo reporter: -18%

How did O=C(N/N=C/c1ccccc1)NC1CCCCC1 do in these assays?
Cruzain inh noDet: 3%; SARS PLpro yeast: -18%; RE007 growth inh: 1%; LASV entry inh: 10%; NS1 inh: -10%; StopGo reporter: 39%[activator]; Cruzain inh Det: -0.3%; MARV entry inh: 37%

How did COc1ccc(CN2CCN(S(=O)(=O)c3ccc(NC(C)=O)cc3)CC2)cc1 do in these assays?
SARS PLpro yeast: 0%; RE007 growth inh: 8%; NS1 inh: inconclusive; StopGo reporter: inconclusive

Results for O=C1C2C(c3ccccc3)C=CC(c3ccccc3)C2C(=O)N1C1CCCCC1 (stereo not drawn) ?
Cruzain inh noDet: inconclusive; SARS PLpro yeast: 9%; RE007 growth inh: -17%; LASV entry inh: 1%; NS1 inh: 16%; StopGo reporter: -21%; Cruzain inh Det: 6.9%; MARV entry inh: -20%[46.1 µM]

Results for Cc1ccccc1C(=O)Nc1ccc(N2CCOCC2)nc1 ?
Cruzain inh noDet: 17%; SARS PLpro yeast: 4%; RE007 growth inh: 1%; LASV entry inh: inconclusive; NS1 inh: -5%; StopGo reporter: 0%; Cruzain inh Det: 3.1%; MARV entry inh: 17%

Results for CC1CN(C(=O)c2ccc(Oc3ccccc3)cc2)CC(C)O1 (stereo not drawn) ?
SARS PLpro yeast: 2%; RE007 growth inh: 22%; LASV entry inh: inconclusive; StopGo reporter: -7%; MARV entry inh: -7%[46.1 µM]

How did CCCc1cc(=O)oc2c(C)c3c(cc12)CN(CCc1ccc(Cl)cc1)CO3 do in these assays?
Cruzain inh noDet: -6%; LASV entry inh: 28%[46.1 µM]; StopGo reporter: -15%; Cruzain inh Det: -3.3%; MARV entry inh: 4%[46.1 µM]

How did FC(F)(F)c1ccc(NC2=NCCCS2)cc1 do in these assays?
SARS PLpro yeast: -4%; RE007 growth inh: -21%; NS1 inh: -3%; StopGo reporter: 38%[activator]

Results for Cc1cc(N)n(Cc2cccs2)n1 ?
SARS PLpro yeast: 0%; RE007 growth inh: -10%; NS1 inh: 7%; StopGo reporter: 3%

What do the screens show for `COc1ccc(OCCSc2nc3ccccc3n2CC(=O)N2CCOCC2)cc1`?
Cruzain inh noDet: 4%; LASV entry inh: -17%[46.1 µM]; StopGo reporter: 17%; Cruzain inh Det: -5.3%; MARV entry inh: inconclusive

How did O=C(CN(C(=O)C1COc2ccccc2O1)c1ccccc1)NCC1CCCO1 (stereo not drawn) do in these assays?
Cruzain inh noDet: 3%; SARS PLpro yeast: 2%; RE007 growth inh: 3%; LASV entry inh: -1%; NS1 inh: 3%; Cruzain inh Det: 5.0%; MARV entry inh: 6%

Results for Cc1ccc(OCCNC(=O)Cn2cnc3c(=O)n(C)c(=O)n(C)c32)cc1C ?
Cruzain inh noDet: 2%; SARS PLpro yeast: -5%; RE007 growth inh: -21%; LASV entry inh: -8%; NS1 inh: -3%; StopGo reporter: -11%; Cruzain inh Det: 0.1%; MARV entry inh: 18%

How did COc1ccc2c(Sc3ccccc3)c(C(=O)NCc3cc(Br)ccc3OC)[nH]c2c1 do in these assays?
Cruzain inh noDet: 1%; LASV entry inh: 18%[46.1 µM]; StopGo reporter: 3%; Cruzain inh Det: -11%; MARV entry inh: 1%[46.1 µM]

How did Cc1ccc(C)c(N2CCN(C(=O)CN3CCSc4ccc(S(=O)(=O)N(C)C)cc43)CC2)c1 do in these assays?
Cruzain inh noDet: -13%; LASV entry inh: -20%[46.1 µM]; StopGo reporter: 0%; Cruzain inh Det: -4.9%

How did Cc1ccc(CNc2nc3nc(C)c(Cl)c(C)n3n2)cc1 do in these assays?
Cruzain inh noDet: 11%; LASV entry inh: inconclusive; StopGo reporter: 50%[activator]; Cruzain inh Det: -0.9%; MARV entry inh: inconclusive

What do the screens show for `O=C(NCc1ccncc1)c1cc(-c2ccc(Cl)cc2)oc1C(F)(F)F`?
SARS PLpro yeast: -13%; RE007 growth inh: 11%; NS1 inh: 2%; StopGo reporter: inconclusive

How did COc1ccccc1/C=C/C1(C(=O)NC2CCCC2)CC(=O)N1c1ccccc1 (stereo not drawn) do in these assays?
SARS PLpro yeast: 2%; RE007 growth inh: 15%; NS1 inh: -1%; StopGo reporter: -22%

How did CCOc1ccc(OC(=O)c2c(-c3ccccc3Cl)noc2C)cc1 do in these assays?
Cruzain inh noDet: -4%; LASV entry inh: -12%[46.1 µM]; StopGo reporter: 40µM*; Cruzain inh Det: -4.0%

What do the screens show for `O=C(COC(=O)c1cc(Cl)ccc1O)Nc1cc(C(F)(F)F)ccc1N1CCOCC1`?
SARS PLpro yeast: 0%; RE007 growth inh: -4%; LASV entry inh: 1%; StopGo reporter: -24%; MARV entry inh: -2%

Retrieved one by one from the entries so far:
How did Cc1ccc(CNc2nc3nc(C)c(Cl)c(C)n3n2)cc1 do in these assays?
Cruzain inh noDet: 11%; LASV entry inh: inconclusive; StopGo reporter: 50%[activator]; Cruzain inh Det: -0.9%; MARV entry inh: inconclusive

How did Cc1ccc(C)c(N2CCN(C(=O)CN3CCSc4ccc(S(=O)(=O)N(C)C)cc43)CC2)c1 do in these assays?
Cruzain inh noDet: -13%; LASV entry inh: -20%[46.1 µM]; StopGo reporter: 0%; Cruzain inh Det: -4.9%

(list continues)
What do the screens show for `CCc1nnc(NC(=O)CN2CCN(Cc3ccccc3C)CC2)s1`?
SARS PLpro yeast: 14%; RE007 growth inh: -6%; LASV entry inh: 0%; NS1 inh: 4%; StopGo reporter: -19%; MARV entry inh: inconclusive

Results for O=C(COC(=O)c1cccc(S(=O)(=O)N2CCOCC2)c1)Nc1ccc2c(c1)OCO2 ?
Cruzain inh noDet: -4%; SARS PLpro yeast: 4%; RE007 growth inh: 13%; LASV entry inh: -4%; NS1 inh: -4%; StopGo reporter: 15%; Cruzain inh Det: -1.6%; MARV entry inh: 3%

Results for Cc1cccc(C)c1OCc1cc(C(=O)NCc2ccc(Cl)s2)no1 ?
SARS PLpro yeast: 0%; RE007 growth inh: -10%; NS1 inh: -2%; StopGo reporter: 14%

What do the screens show for `CCOc1ccccc1CNC(=O)Cn1ccc2cc(S(=O)(=O)N3CCC(C)CC3)ccc21`?
SARS PLpro yeast: -2%; RE007 growth inh: 6%; NS1 inh: inconclusive; StopGo reporter: 3%

How did Cc1ccc(Cl)cc1Nc1nc(-c2sc(NC(=O)C(C)(C)C)nc2C)cs1 do in these assays?
Cruzain inh noDet: -25%; SARS PLpro yeast: 4%; RE007 growth inh: -1%; NS1 inh: 16%; StopGo reporter: -22%; Cruzain inh Det: -2.6%

How did CCOc1ccc(S(=O)(=O)Nc2cccc(-c3ccc(N4CCCC4)nn3)c2)cc1 do in these assays?
Cruzain inh noDet: inconclusive; LASV entry inh: -4%[46.1 µM]; StopGo reporter: 37%[activator]; Cruzain inh Det: -10%

Results for CCOc1ccc(-c2c(C(=O)N/N=C/c3ccccc3)nnn2-c2nonc2N)cc1 ?
SARS PLpro yeast: 3%; RE007 growth inh: 2%; LASV entry inh: 12%[46.1 µM]; NS1 inh: 14%; StopGo reporter: inconclusive; MARV entry inh: inconclusive

How did Cc1ccc(S(=O)(=O)NCCC(=O)N2CCOCC2)cc1C do in these assays?
SARS PLpro yeast: -1%; RE007 growth inh: 3%; LASV entry inh: 24%; StopGo reporter: -11%; MARV entry inh: 4%

Results for COc1ccc(Nc2nc(-c3cccs3)cs2)cc1 ?
Cruzain inh noDet: 16µM*; SARS PLpro yeast: 6%; RE007 growth inh: -8%; LASV entry inh: 0%; NS1 inh: 3%; StopGo reporter: 86%[activator]; Cruzain inh Det: 0.3%; MARV entry inh: inconclusive

What do the screens show for `Nc1ccc2oc(-c3ccccc3Br)nc2c1`?
Cruzain inh noDet: 0%; LASV entry inh: 14%[46.1 µM]; StopGo reporter: -19%; Cruzain inh Det: -3.8%; MARV entry inh: inconclusive

What do the screens show for `CCOc1ccc2c(c1)c(=O)c(S(=O)(=O)c1ccc(CC)cc1)cn2Cc1cccc(Cl)c1`?
Cruzain inh noDet: -1%; LASV entry inh: -14%[46.1 µM]; StopGo reporter: -1%; Cruzain inh Det: -0.7%; MARV entry inh: 10%[46.1 µM]
